From PubChem BioAssay
VACV E9 pol inh = vaccinia E9 polymerase processive synthesis inhibitors, primary screen, biochemical, absorbance; AID 493162, 2011; normalized absorbance, % (no concentration beside the values); in vitro processive DNA synthesis, absorbance read-out; active compounds read low; some inactives read as strong as hits; 46,000 compounds, 0.94% hits; Vaccinia virus DNA polymerase (E9) processive complex;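 active = replicate mean up to 90% and picked by the depositor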;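 note: 100% = median of the test wells of a plate; 100 nL library stock went into each well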
Numbers without * were called inactive. Only part of the results is shown (hit frequency here may not be typical).

Preview (three entries):
SMILES	VACV E9 pol inh
COC(=O)c1sc(-c2ccc(C(C)(C)C)cc2)cc1NC(=O)COCC(=O)O	75
O=C(O)CCCN1CCS(=O)CC1	101
O=C(NCCCN1CCOCC1)c1cc2c(s1)CCC2	82

The whole of this part, from the start:
SMILES	VACV E9 pol inh
COC(=O)c1sc(-c2ccc(C(C)(C)C)cc2)cc1NC(=O)COCC(=O)O	75
O=C(O)CCCN1CCS(=O)CC1	101
O=C(NCCCN1CCOCC1)c1cc2c(s1)CCC2	82
CC1Cc2ccccc2N1C(=O)C1CCCCN1S(=O)(=O)c1ccc(Cl)cc1 (stereo unspecified)	97
Cc1cc(O)cc(=O)n1Cc1cccnc1	104
CCCC1=Nc2cc(C(=O)NC3CCCC3)ccc2Sc2ccccc21	103
CC(C)(C)C(=O)Nc1cc(NC(=O)C(C)(C)C)cc(C(=O)Nc2ccc(Oc3ccccc3)cc2)c1	100
CC1(C)NC(=S)N(c2ccccc2)N1	88
O=C1/C(=C\Nc2ccc(F)cc2)CCN1c1ccc(Cl)cc1	100
Cc1cc(C(=O)N(C)C2CCCCC2)no1	92
Cc1ccc(N2C(=O)CSC2c2ccccc2C(F)(F)F)cc1C (stereo unspecified)	100
CN1C(=O)NC(=O)/C(=C\C=C\c2ccco2)C1=O	100
CN(C)c1ccc(-c2n(C)c3ccccc3[n+]2C)cc1	100
Cc1ccc(CSCc2ccc(C(=O)NCCc3ccccc3)o2)cc1	97
Cc1nc2cc(C(=O)NCc3ccccn3)ccc2n1-c1cccc(F)c1	101
O=C(OCC1CC2C=CC1C2)c1cc2ccccc2oc1=O (stereo unspecified)	99
O=C(O)c1coc2c(F)c(F)c(F)cc2c1=O	95
COc1ccc(C2=CN3C(=O)CSC3=NN2)cc1	100
Cc1cc(C)c(Cn2c(S(=O)(=O)Cc3ccccc3)nc3ccccc32)c(C)c1	100
NC(=O)Cn1cc(C(=O)c2ccccc2)c2ccccc21	101
CC(Oc1ccc(Cl)cc1Cl)C(=O)NN1C(=O)c2ccccc2C1=O (stereo unspecified)	98
O=C(NCc1ccccc1)C1CCCN1C(=O)OCc1ccccc1 (stereo unspecified)	92
Nc1ccc2nc(CCC(=O)O)[nH]c2c1	101
COc1ccc(C(=O)n2nc3c(c2-c2ccc(OC)cc2)COC(C)(C)C3)cc1	100
COc1cc2c(c(OC)c1OC)CC(N)CCC2 (stereo unspecified)	104
Cc1ccc(C)n1C(CC(=O)O)c1ccc2c(c1)OCO2 (stereo unspecified)	72
COc1ccc(CC(=O)Nc2ccc3c(C(F)(F)F)cc(=O)oc3c2)cc1OC	100
O=c1cc(-c2ccccc2)sc2ccc(Cl)cc12	100
Cc1ccc(NC(=O)Cn2ccn(CCc3ccc(S(N)(=O)=O)cc3)c(=O)c2=O)cc1F	96
Cc1ccc2c(C)nc(NC3=NC(C(=O)Nc4ccc(Cl)c(Cl)c4)CC(=O)N3)nc2c1 (stereo unspecified)	100
COc1cc(N)c(Cl)cc1C(=O)O	100
COc1cc2ncc(-c3ccccc3)nc2cc1OC	100
Cc1ccc(C(C)C)c(OCC(=O)NCCC23CC4CC(CC(C4)C2)C3)c1	100
O=C(NCSc1nc2ccccc2s1)C(F)(F)F	102
CCC(CC)C(CC(=O)O)N1Cc2ccccc2C1=O (stereo unspecified)	108
CCN(CC)C(=O)C1CC(=O)OC1(C)C (stereo unspecified)	92
CC(C)S(=O)(=O)c1csc(C(=O)OCC(=O)c2ccc(Cl)cc2)c1N	100
O=C(CSCc1ccccc1)Nc1nnc(Cc2ccccc2)s1	98
N#C/C(=C(\O)c1ccc(C#N)cc1)c1nc2ccccc2s1	100
CCOC(=O)NS(=O)(=O)c1ccc(-c2cc(C(F)(F)F)n(C)n2)s1	93
NC(=O)Cn1cc(/C=C2/C(=O)NC(=O)N(C3CCCCC3)C2=O)c2ccccc21	100
CC1=C(C#N)C(=O)NC(=O)/C1=C/c1ccc(N(C)C)cc1	99
ONc1cccnc1-n1nc(C(F)(F)F)cc1C(F)(F)F	128
O=C1CNC(=S)N1CCOc1ccccc1Cl	101
CC(C)(C)c1nnc(Nc2ccc3c(c2)OCO3)n(N)c1=O	100
CC12CCC(c3c1noc3C(F)(F)F)C2(C)C (stereo unspecified)	87
c1ccc(-c2cnc(-c3ccccc3)o2)cc1	100
CCOc1ccc(-c2c(C#N)c(N)nc(SCC(=O)c3ccc(Cl)cc3)c2C#N)cc1	100
O=C(Nc1cccs1)Nc1ccccc1N1CCCCC1	102
CC1(C)Cc2c(ccc3ccccc23)C(Sc2ccc(N)cc2)=N1	104
OCCCc1nc2ccccc2n1Cc1ccc(Cl)cc1	100
CCOC(=O)c1cnn(C(=O)c2snnc2C)c1N	95
Fc1cc(Br)ccc1N=Cc1ccccn1	110
CC1(C)C=C(/C=C/c2ccccc2F)NC(=S)N1	100
CCOC(=O)c1c(NC(C)=O)sc(Br)c1-c1ccc(C)cc1	89
O=c1c(-c2cc3ccccc3o2)coc2cc(O)ccc12	100
CC1=NN(c2ncnc3sc4c(c23)CCCC4)C(=O)C1	96
CC(C)CNC(=O)c1cccc(S(=O)(=O)N2CCCC2)c1	99
O=C(OCC(=O)N1CCc2ccccc21)C1CC2C=CC1C2 (stereo unspecified)	103
CN1C(=O)N(C)C(=O)C(CCc2ccncc2)(C2(C#N)CCCCC2)C1=O	101
Further results
SMILES	VACV E9 pol inh
Cn1c(P(C)(=O)O)nc2ccccc21	100
O=c1[nH]c(=O)n(C2C[C@@H](O)[C@@H](CO)O2)cc1F (stereo partly specified)	100
O=C(O)C12CC3CC(C1)CC(n1ncc(NCc4ccc(F)cc4)c(Cl)c1=O)(C3)C2	102
Cc1[nH]n(-c2cccc(Cl)c2)c(=O)c1C1CC(=O)N(c2ccccc2)C1=O (stereo unspecified)	100
O=C(CN1C(=O)c2ccccc2C1=O)NC1=NCCS1	99
O=c1[nH]c2cc(C(F)(F)F)ccc2n(CCNc2ncc(C(F)(F)F)cc2Cl)c1=O	98
CCCCC(=O)c1ccc(O)cc1	110
CC(C)CCOc1ccc(C(=O)C(CN2CCOCC2)c2ccccc2)cc1 (stereo unspecified)	100
COc1ccc(CN=C2SCC(=O)N2c2ccccc2)cc1Cl	89
CCN(C(=O)c1ccc(Cl)cc1Cl)c1nnc(-c2ccncc2)s1	94
O=C(O)CNC(=O)C12CC3CC(CC(C3)C1)C2	104
CCC1Sc2cc(S(=O)(=O)Nc3cccc(Cl)c3)ccc2NC1=O (stereo unspecified)	67
COc1ccc(C=Nc2ccc(Br)cc2)cc1	100
O=C(/C=C/c1cn(-c2ccccc2)nc1-c1ccc(F)cc1)NCc1ccccn1	89
COc1ccc2cc(C(=O)CBr)ccc2c1	92
CCCc1nc2ccccc2n1CC(=O)N1CCc2ccccc21	104
C=CCN(C(=O)Cc1ccc(OC)cc1)c1nnc(-c2ccc(Cl)cc2)s1	100
CCN1CCN(c2nc(-c3ccc(C(C)(C)C)cc3)nc3ccccc23)CC1	98
COc1ccccc1/C=C(\C#N)c1ccc(-n2cccc2)cc1	93
CCOC(=O)N1CCN(C(=O)c2ccc(-n3c(=S)[nH]c4ccccc4c3=O)cc2)CC1	101
COC(=O)C1=C(C)NC(SCC(=O)Nc2ccccc2)=C(C#N)C1c1ccccc1F (stereo unspecified)	102
CC1c2nc3ccccc3n2C(CC(=O)NCc2ccc(Cl)cc2)C(=O)N1Cc1ccccc1 (stereo unspecified)	103
CCc1nc2sc3c(NCCc4ccccc4)ncnc3c2c2c1CCCC2	101
COc1cc(/C=C\C(=O)NCCc2cc3ccc(C)cc3[nH]c2=O)cc(OC)c1OC	92
Cc1cccc(NC(=O)c2ccc3ccccc3c2)c1C	100
NNc1nncc2ccccc12	99
CCn1c(C(=O)N2CCC(C(=O)O)CC2)cc2sccc21	106
Cc1c(Cl)cccc1NCc1nc2ccccc2s1	94
O=C1CSC(=Nc2cccc(C(F)(F)F)c2)N1	78
O=C(O)CCc1c(-c2ccccc2)cc2ccccn12	109
O=C(O)c1cccc(Nc2nc(Nc3ccccc3)nc(N3CCCC3)n2)c1	99
O=C(OCCN1CCCC1=O)c1cccs1	100
CC(C)C(NC(=O)c1ccccc1Cl)C(=O)NC1CCCCCC1 (stereo unspecified)	108
O=C(CC(c1ccccc1)c1ccccc1)NCc1nc(-c2ccccc2)no1	92
CCOc1ccc2c(c1)C(C)=CC(C)(C)N2	94
O=C(Nc1cccc(-c2nc3ccccc3c(=O)o2)c1)c1ccccc1Br	100

Part of the list above in order of molecular weight, ascending.
SMILES	VACV E9 pol inh
NNc1nncc2ccccc12	99
CCCCC(=O)c1ccc(O)cc1	110
CCOc1ccc2c(c1)C(C)=CC(C)(C)N2	94
O=C(O)CNC(=O)C12CC3CC(CC(C3)C1)C2	104
O=C(OCCN1CCCC1=O)c1cccs1	100
O=C1CSC(=Nc2cccc(C(F)(F)F)c2)N1	78
O=C(O)CCc1c(-c2ccccc2)cc2ccccn12	109
Cc1cccc(NC(=O)c2ccc3ccccc3c2)c1C	100
COc1ccc2cc(C(=O)CBr)ccc2c1	92
O=C(CN1C(=O)c2ccccc2C1=O)NC1=NCCS1	99
COc1ccc(C=Nc2ccc(Br)cc2)cc1	100
COc1ccccc1/C=C(\C#N)c1ccc(-n2cccc2)cc1	93
CCn1c(C(=O)N2CCC(C(=O)O)CC2)cc2sccc21	106
CCCc1nc2ccccc2n1CC(=O)N1CCc2ccccc21	104
COc1ccc(CN=C2SCC(=O)N2c2ccccc2)cc1Cl	89
CC(C)C(NC(=O)c1ccccc1Cl)C(=O)NC1CCCCCC1 (stereo unspecified)	108
CCN1CCN(c2nc(-c3ccc(C(C)(C)C)cc3)nc3ccccc23)CC1	98
O=C(O)c1cccc(Nc2nc(Nc3ccccc3)nc(N3CCCC3)n2)c1	99
CCN(C(=O)c1ccc(Cl)cc1Cl)c1nnc(-c2ccncc2)s1	94
CC(C)CCOc1ccc(C(=O)C(CN2CCOCC2)c2ccccc2)cc1 (stereo unspecified)	100
O=C(CC(c1ccccc1)c1ccccc1)NCc1nc(-c2ccccc2)no1	92
CCc1nc2sc3c(NCCc4ccccc4)ncnc3c2c2c1CCCC2	101
O=C(/C=C/c1cn(-c2ccccc2)nc1-c1ccc(F)cc1)NCc1ccccn1	89
C=CCN(C(=O)Cc1ccc(OC)cc1)c1nnc(-c2ccc(Cl)cc2)s1	100
O=C(Nc1cccc(-c2nc3ccccc3c(=O)o2)c1)c1ccccc1Br	100
COc1cc(/C=C\C(=O)NCCc2cc3ccc(C)cc3[nH]c2=O)cc(OC)c1OC	92
O=C(O)C12CC3CC(C1)CC(n1ncc(NCc4ccc(F)cc4)c(Cl)c1=O)(C3)C2	102
COC(=O)C1=C(C)NC(SCC(=O)Nc2ccccc2)=C(C#N)C1c1ccccc1F (stereo unspecified)	102
CCOC(=O)N1CCN(C(=O)c2ccc(-n3c(=S)[nH]c4ccccc4c3=O)cc2)CC1	101
O=c1[nH]c2cc(C(F)(F)F)ccc2n(CCNc2ncc(C(F)(F)F)cc2Cl)c1=O	98
CC1c2nc3ccccc3n2C(CC(=O)NCc2ccc(Cl)cc2)C(=O)N1Cc1ccccc1 (stereo unspecified)	103

Going on with the list.
SMILES	VACV E9 pol inh
O=C1c2ccccc2C(=O)N1c1ccc2c(C(F)(F)F)cc(=O)oc2c1	106
O=C(Nc1cc(=O)[nH][nH]1)c1cc(-c2ccc(F)cc2)nc2ccccc12	106
Cc1c(OCC(N)=O)ccc2c3c(c(=O)oc12)CCCC3	86
Cn1nc(C(=O)N2CCCC2)c2ccccc2c1=O	96
Cc1ccc(-n2nc3c(c2NC(=O)CCC2CCCC2)CS(=O)C3)cc1 (stereo unspecified)	99
Cc1cc(N2CCN(CC(O)C(F)(F)F)CC2)c2ccccc2n1 (stereo unspecified)	74
CC1CCN(c2nc3nonc3nc2Nc2ccc3c(c2)OCO3)CC1	100
COc1ccc2cc3cc(C(=O)NCc4ccco4)oc3nc2c1	87
O=C(NC1CCCCC1)C(Cc1c[nH]c2ccccc12)NC(=O)C(c1ccccc1)c1ccccc1 (stereo unspecified)	98
N#Cc1c(-c2ccccc2)cc(-c2ccccc2)nc1SCC(O)CS(=O)Cc1ccccc1 (stereo unspecified)	100
Clc1ccc(CNc2nccs2)cn1	92
Nc1ccc(Br)cc1-c1nc2ccccc2[nH]c1=O	100
Cc1ncc(-c2cc3c(ccc4ccccc43)oc2=O)s1	84
COC(=O)C(CC(=O)c1cccc(C)c1)c1ccc(Cl)cc1 (stereo unspecified)	106
O=C(Cn1nc(C(F)(F)F)c2c1CCCC2)N(Cc1ccccc1)Cc1ccccc1	106
CSC(N)=Nc1csc(C(F)(F)F)c1-c1ccccc1	100
Cc1ccccc1-n1c(-c2ccc(Br)cc2)n[nH]c1=S	98
O=C(C[n+]1ccccc1)Nc1c2c(nc3c1CCC3)CCCC2	100
CC(=O)Nc1[nH]cc(C)c1C#N	92
O=c1cc(N2CCCCC2)nc2scc(-c3ccccc3)n12	108
O=C(CC(SCc1ccco1)c1ccc(F)cc1)c1ccco1 (stereo unspecified)	99
CCOC(=O)c1ccc(NC(=O)CC2C(=O)N(c3ccc(F)cc3)C(=O)N2Cc2cccs2)cc1 (stereo unspecified)	102
O=C(COc1ccc(Cl)cc1Cl)NO	101
Cc1c(C(=O)Nc2ccccc2)sc2ncn(CC(N)=O)c(=O)c12	103
